TRPV1 PAM: potentiators of human vanilloid receptor 1 (TRPV1); 320,000 tested, 0.02% active; TRPV1-expressing cells, Fluo-8 calcium influx, capsaicin EC20 potentiation; host cell line not named in the record; control for the full effect not named in the record; potentiation, % at 8.33 µM; Q8NER1; active means potentiation above 80%; inconclusive means 30% to 80%; inactive means below 30%; also: 0% is about no effect
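TRPV1-expressing cells were cultured overnight at 35.5C and loaded with Fluo-8 calcium dye for 40 to 90 min at room temperature. After a 10 s baseline, compound was added and calcium influx was read kinetically for 3 min (ex 480/em 520 nm).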
gsp agonist: activates gsp, the McCune-Albright syndrome mutation; Potency, µM (doses to about 76.9 µM), inactives show at the highest dose activation (cAMP increase), most hits filed as activators; gsp mutant cells, cAMP HTRF, 30 min; control for the full effect not named in the record; 340,000 tested, 0.13% active; AID 624287; active = well fitted activation curve with a large enough effect; inconclusive = small, poorly fitted or top-dose-only effect, or another doubt; inactive = no such curve, though single readings can be large or run the other way; cell line not stated here;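 also: phosphodiesterase inhibitor Ro 20-1724 added with compounds to block cAMP breakdown; potency is read from the fitted curve at half-maximal effect; nearly all actives have a fitted effect of over 60% in size; about a fifth of the inactives were tested at one dose only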
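Cells stably selected in G418 were plated at 2000/well, grown 16-24 hr, then given compounds in DMSO with the PDE inhibitor […] (300 uM solution added) for 30 min at 37C; cAMP was read by HTRF.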
Sfp inh: blocks B. subtilis Sfp PPTase activity | Biochemical Sfp PPTase activity, qHTS | Potency, µM, inactives show max response, negative = inhibition, most hits filed as inhibitors | AID 1490 | 310,000 tested, 3.5% active | Q9F4F7; active = well fitted inhibition curve with a large enough effect; inconclusive = small, poorly fitted or top-dose-only effect, or another doubt; inactive = no such curve, though single readings can be large or run the other way;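 also: the enzyme is Sfp with the accession as filed and its product quenches rhodamine fluorescence; potency is read from the fitted curve at half-maximal effect; 0% = enzyme reaction without inhibitor and -100% = no enzyme wells; top concentration of the series not given in the record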
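With Hepes-Na pH 7.6 buffer containing 10 mM MgCl2, Sfp (15 nM) modified BHQ-2-YbbR (12.5 uM) using rhodamine-CoA (5 uM). Two reads 30 minutes apart at 525/598 nm yielded each well's rate.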
D2 PAM: positive allosteric modulators of human D2 dopamine receptor; 360,000 tested, 0.23% active; AID 624464; DiscoveRx D2 beta-arrestin cells, luminescence, 90 min; 100% = 57 uM dopamine signal; potentiation, % (test concentration not listed); active = potentiation of 50% or more; inconclusive = 30% to 50%; inactive = 30% or less;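 also: compound concentration not given in the record; tested on top of an EC20 dose of dopamine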
Target sequence (P14416 whole entry, looked up): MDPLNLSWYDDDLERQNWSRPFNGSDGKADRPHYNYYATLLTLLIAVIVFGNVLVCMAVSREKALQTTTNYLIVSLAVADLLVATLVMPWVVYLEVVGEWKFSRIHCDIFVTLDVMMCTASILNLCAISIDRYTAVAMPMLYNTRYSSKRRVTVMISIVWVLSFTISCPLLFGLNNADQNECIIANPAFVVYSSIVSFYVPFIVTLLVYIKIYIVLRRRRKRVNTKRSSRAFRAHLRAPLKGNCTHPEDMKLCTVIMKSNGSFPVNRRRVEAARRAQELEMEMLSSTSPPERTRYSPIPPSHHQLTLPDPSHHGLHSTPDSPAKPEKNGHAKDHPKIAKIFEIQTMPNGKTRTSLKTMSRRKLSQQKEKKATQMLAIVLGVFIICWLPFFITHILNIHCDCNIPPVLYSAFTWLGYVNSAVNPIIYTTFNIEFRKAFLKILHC
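PathHunter D2 cells, attached overnight at 37 deg C, received compound in DMSO plus dopamine at EC20 (50 nM final) for 90 min at 37 deg C. Beta-arrestin recruitment was read as luminescence after 1 h with detection reagent at ambient temperature.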
gsp antagonist: antagonizes gsp, the McCune-Albright syndrome mutation; gsp-mutant cells, cAMP HTRF, 30 min; control for the full effect not named in the record; 340,000 tested, 0.4% active; Potency, µM (doses to about 76.9 µM), inactives show at the top dose activity change, negative = inhibition, actives largely listed as inhibitors; active = falling curve of any shape with a large fitted effect; inconclusive = falling curve, mostly with a smaller effect; inactive = flat or rising curve; cell line not stated here;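 also: intracellular cAMP measured with PDE inhibitor Ro 20-1724 present during compound exposure; potency is read from the fitted curve at half-maximal effect; % is scaled to controls: 0 for no effect and ±100 for the full control effect; nearly all actives have a fitted effect of over 65% in size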
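Cells in G418 medium, seeded 16-24 h, 37C; buffer exchange to DPBS + 1 mM CaCl2, 0.5 mM MgCl2, 0.05% BSA; cpds in DMSO + […] (300 uM stock), 30 min 37C; HTRF cAMP detection.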
ClpP mod: qHTS Assay for Activators of ClpP; Potency, µM (highest dose often 57.5 µM), for inactives: at the highest dose activity change, negative = active; AID 651965, 2013; 340,000 tested, 1.9% active; purified B. subtilis ClpP, FRET peptide cleavage, 20 min; ATP-dependent Clp protease proteolytic subunit (Bacillus subtilis (strain 168)), P80244; active = well fitted falling curve with a large enough effect; inconclusive = small, poorly fitted or top-dose-only effect; inactive = no such curve, though single readings can be large or run the other way; also: potency is read from the fitted curve at half-maximal effect; the source files actives as falling curves though it sought activators and does not explain the sign; nearly all actives have a fitted effect of over 65% in size; many hits overshoot -100%
Target sequence (P80244 whole entry, looked up): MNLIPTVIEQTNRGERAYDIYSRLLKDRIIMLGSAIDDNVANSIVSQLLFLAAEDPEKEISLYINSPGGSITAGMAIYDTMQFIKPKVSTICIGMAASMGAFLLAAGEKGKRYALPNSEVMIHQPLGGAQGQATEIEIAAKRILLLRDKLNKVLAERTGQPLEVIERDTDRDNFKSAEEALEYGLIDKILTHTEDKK
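ClpP 10 microg/mL final, pH 8 Tris/KCl buffer with BSA, glycerol, Tween-20; compound pinned in; FRET-FV substrate; RT 20 min; Ex320/Em430; ΔFRET vs ADEP 5.8 microM, DMSO, no enzyme.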
Menin MLL FP FL: menin-MLL binding inhibition, fluorescein peptide. Fluorescence polarization, fluorescein-MLL peptide displacement from menin. FP activity change, % at 61.4 µM. AID 1766. 290,000 tested, under 10 active; inconclusive = falling polarisation curve, or a change in total fluorescence; inactive = total fluorescence flat and polarisation flat or rising; no compound was filed as active; the % refers to the polarisation; negative = inhibition;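 also: % of control where 0% means no effect; inhibitors lower the polarisation; unlabelled MLL peptide was the positive control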
Numbers without * were called inactive; ? = inconclusive; . = not tested or not shown; & = joins results of further samples; [ ] = remark or other dose.

SMILES	TRPV1 PAM	gsp agonist	Sfp inh	D2 PAM	gsp antagonist	ClpP mod	Menin MLL FP FL
CCOc1ccc(C2C(C(=O)C3CC3)N3C=C(C#N)C=CC3C2(C#N)C#N)cc1 (stereo not given)	3.3	.	?	.	.	.	?
CCN(C(=O)CSc1nnc(-c2ccncc2)n1Cc1ccccc1)C1CCS(=O)(=O)C1 (stereo not given)	14.0	2.4%[15.4 µM]	23.9%	1.1	3.2%	.	2.9
CCN(C(=O)COC(=O)/C=C/c1cnc2ccccc2n1)c1ccccc1	9.6	2.5%	4.3%	-4.3	-3.4%	-3.5%	-3.4
CCCC(=O)Nc1ccc(-c2nc3cc(C)c(C)cc3o2)cc1	1.4	7.5%	5.0%	-3.5	1.7%	?	0.7
CCNc1nc(N)nc(Oc2ccc(OCCOc3ccc(Cl)cc3Cl)nn2)n1	0.5	-17.3%	13.6%	-0.3	2.7%	0.3%	3.8
CCN(CCCc1ccccc1)CCCc1ccccc1	-6.8	.	12.7%&-1.1%&19.0%	-32.2	-2.8%	-3.6%	-0.2
C=CCOc1ccc(Br)cc1/C=C1/SC(=Nc2ccc(C(=O)O)cc2)NC1=O	27.5	?	-19.9%	-8.2	-26.3%	-1.0%	?
O=C(COC(=O)/C=C/c1ccccc1[N+](=O)[O-])NCC(F)(F)F	-7.0	-12.9%	-0.4%	-11.2	-9.0%	-4.8%	-3.9
O=C(C1CCCCC1)N1C[C@H](n2cc(C3CC3)nn2)[C@@H](O)C[C@@H]1c1ccc(Cl)cc1	.	?	.	-1.2	.	0.2%	.
COC(OC)c1ccnc(-c2ccc(OC(=O)c3cccs3)cc2)n1	-11.9	14.3%	-5.4%	?	-3.2%	-0.7%	1.2
O=C(c1ccc(S(=O)(=O)c2ccccc2Cl)c([N+](=O)[O-])c1)N1CCCCCC1	15.3	-5.6%	-9.4%	27.9	?	-1.3%	3.6
Cc1ccc(N2CC(C(=O)Nc3nnc(SCC(=O)N4CCOCC4)s3)CC2=O)cc1 (stereo not given)	1.1	-51.7%[inhibitor]	0.7%	11.0	9.1%	-0.6%	7.6
CC(C)COc1ccc(CNC(=S)NCc2ccccc2)cc1	-18.0	-41.3%[inhibitor]	12.5%	6.5	-21.5%	-0.6%	3.8
O=C(Nc1ccccc1C(=O)N/N=C/c1ccc(F)cc1)c1ccccc1Br	-7.5	3.1%	1.8%	-17.1	-19.7%	-3.2%	1.3
Cc1ccc(C)c(S(=O)(=O)N2CCN(C(=O)CCNC(=O)c3ccc(Br)cc3)CC2)c1	-2.8	1.2%[15.4 µM]	.	-29.3	5.4%	1.8%	.
CC1CCN(CCCNC(=O)c2ccc3c(Cl)c4c(nc3c2)CCCC4)CC1	-2.1	17.3%	-3.3%	-15.1	0.5%	.	5.0
CC(=O)N1N=C(c2cccs2)CC1c1cccs1 (stereo not given)	4.2	-35.0%[inhibitor]	15.3%	2.2	10.4%	.	4.2
O=C(c1cccc(S(=O)(=O)Nc2ccc(F)cc2)c1)N1CCC1	-13.0	0.3%	.	-2.2	1.9%	-1.4%	.
COc1ccc(-c2nnc(SC(C)C(=O)Nc3nccs3)n2Cc2ccccc2)cc1OC (stereo not given)	-6.7	-22.3%	17.9%	-12.4	-13.2%	-0.7%	0.6
O=c1oc2cc(OCCO)ccc2c2c1CCCC2	6.2	?	-1.7%	-1.2	1.0%	4.2%	2.8
COc1cc2c(cc1OC)CN(C(=O)c1cc(C3CC3)nn1-c1ccccc1)CC2	-7.7	-7.8%	.	3.7	?	-1.4%	.
Cc1ccc(C(=O)NC2CCN(C(=O)Nc3ccccc3)CC2)cc1	14.8	?	7.9%	-16.1	3.2%	.	1.2
CCc1ccc(NC(=O)C/C(C)=N/NC(=O)COc2ccccc2C)cc1	4.6	6.7%	7.5%	-9.0	5.1%	.	.
CCc1nc2ccccc2c(C(=O)OCC(=O)NCCCN2CCCC2=O)c1C	12.7	-39.7%[inhibitor]	0.7%	-3.6	9.3%	0.9%	-1.1
S=C(Nc1cccc(Cl)c1)Nc1ccc2cn[nH]c2c1	-11.8	0.7%	-23.5%	60.4*	-1.9%	0.7%	2.9
Cc1cccc2c1N(C)C(=O)C2=O	-23.7	-7.5%[15.4 µM]	-1.0%	-6.5	6.0%	.	3.4
Cc1nnc(SCc2ccc(Cl)cc2)nc1/C=C/N(C)C	3.8	-28.5%	-11.9%	-10.0	-22.9%	1.3%	16.3
COc1ccccc1-n1ccn(CC(=O)Nc2ccc(C)cc2Cl)c(=O)c1=O	-4.9	2.2%[15.4 µM]	.	-14.8	-4.6%	0.4%	.
COc1ccccc1NC(=O)CSc1nnc(NC(=O)C2CCC2)s1	26.9	-16.1%[15.4 µM]	1.8%	-5.7	-8.1%	-3.1%	-9.3
O=C(Nc1ccc(Cl)c(Cl)c1)Oc1ccc(NC(=O)c2ccco2)cc1	10.3	-14.4%	-6.6%	-13.8	39.8µM*	-3.2%	0.8
CCCCNC(=O)Nc1nnc(C(C)(C)C)s1	-4.1	-9.0%[15.4 µM]	22.6%	-2.0	-0.5%	-1.1%	-2.1
Clc1ccc(CNc2ccc3nnc(-c4ccccc4)n3n2)cc1	26.7	-23.4%	-2.7%	-7.3	9.5%	-22.8%	1.7
CCOC(=O)N1CCN(C(=O)CCN2C(=O)/C(=C\c3ccccc3OC)SC2=S)CC1	2.2	-2.4%	3.6%	-19.6	-0.8%	0.8%	.
O=C(Nc1ccc(F)cc1F)C1CCCN1S(=O)(=O)c1ccc(-c2ccc(=O)[nH]n2)s1 (stereo not given)	-7.0	6.4%	-6.9%	-7.7	-12.2%	-22.7%	3.7
FC(F)(F)c1nc(NCc2cccnc2)c2ccccc2n1	29.3	21.5%	-0.5%	-5.8	2.4%	.	0.3
CCNc1cc2n(c(=O)n1)CCc1cc(OC)c(OC)cc1-2	5.4	-11.8%	9.6%	-22.8	9.9%	28.2µM*	1.4
CCOc1ccccc1N1CCN(CC(O)COC2CCCc3ccccc32)CC1 (stereo not given)	13.2	-30.1%[15.4 µM]	12.1%	-7.3	7.3%	.	0.0
CCN(c1ccc2c(c1)OCO2)S(=O)(=O)c1cc2c(cc1Br)CCN2C(=O)C1CC1	.	?	.	-13.3	-0.8%	2.9%	.
CC1=C(C)[N+](=O)C2CCCCC2N1[O-] (stereo not given)	12.7	7.0%	9.2%	-0.2	2.2%	-1.7%	4.5
CCC/C(=N/NC(=O)c1ccc2c(c1)OCO2)c1cccs1	-1.7	-12.3%	6.5%	-17.2	9.7%	-1.5%	-6.4
C[C@@H]1CCC(=O)N(CC[C@H](Sc2ccccc2)c2ccccc2)CC1	?	6.5%	3.7%	-2.5	-11.9%	-3.3%&-0.5%	-0.2
Cc1ccc(/C=N/n2c(C3CCCCC3)n[nH]c2=S)o1	-5.2	5.2%[15.4 µM]	-29.1%	0.7	7.7%	0.8%	5.1
CCN(Cc1ccncc1)C(=S)NCc1ccccc1	16.1	-7.1%[15.4 µM]	-6.5%	-0.1	8.8%	.	1.3
CCCNC(=O)c1ccc(Cl)cc1Cl	-4.1	-2.4%[15.4 µM]	22.3%	-5.4	13.3%	.	-0.3
C[C@@H]1C[C@H]2[C@@H]3CCC4=CC(=O)C=C[C@]4(C)[C@@]3(F)[C@@H](O)C[C@]2(C)[C@H]1C(=O)CO	4.5	.	5.8%&14.1%	-11.7	-13.1%	1.3%	3.1&-3.0
O=C(OCC(=O)N1CCOCC1)c1ccc(Br)cc1	8.5	-6.9%[15.4 µM]	14.9%	0.6	3.0%	.	-3.3
O=C(Nc1ccc(NC(=O)c2sc3ccccc3c2Cl)cc1)c1ccco1	-24.8	-0.3%	-7.6%	-4.9	-4.2%	-1.5%	3.4
COc1cc(C)ccc1OCc1cc(C(=O)NCCN2CCOCC2)no1	2.0	17.8%	-0.9%	-4.3	4.1%	-10.2%	0.1
CC(=O)Nc1ccc(S(=O)(=O)N2CCN(S(=O)(=O)c3cccs3)CC2)cc1	0.0	-8.5%	.	-6.9	1.2%	-1.4%	.
CCc1nnc(NC(=O)C2CCC(CNc3c(N4CCCCC4)c(=O)c3=O)CC2)s1 (stereo not given)	5.8	-18.3%	-10.5%	-5.2	-33.6%	2.0%	1.7
CCCCCC(=O)NCc1c(C(F)(F)F)nn(C)c1N1CCOCC1	6.8	11.4%[15.4 µM]	3.6%	-5.5	-6.7%	-29.8%	3.9
COc1cc(Br)cc(/C=C/c2ccc3cccc(O)c3n2)c1OC	-2.1	-0.5%	14.1%	-9.2	-1.8%	-1.4%	0.9
CC(=O)NCCC(=O)Nc1cc(S(=O)(=O)N2CCOCC2)ccc1N1CCOCC1	13.0	-10.2%[15.4 µM]	23.2%	-4.8	.	.	-2.0
NC(=O)[C@H]1CC2(CC(c3cccc(NC(=O)[C@H]4CCC(=O)N4)c3)=NO2)CN1C(=O)c1ccccc1C(=O)c1ccccc1 (stereo not given in full)	?	.	-2.6%	-6.2	-2.8%	-1.9%	-1.8
CCOc1ccc(NC(=O)CN2C(=O)/C(=C3\SC(=S)N(C4CCS(=O)(=O)C4)C3=O)c3ccccc32)cc1 (stereo not given)	-5.9	11.3%[15.4 µM]	56.2µM*	5.5	8.2%	.	9.8
CCN(CC)CCCNC(=O)c1cc2nc(-c3ccccc3)cc(C(F)(F)F)n2n1	-1.2	-1.2%	13.5%	-4.1	9.6%	-20.2%	-1.8
O=C(COc1ccc(F)cc1)Nc1nnc(-c2ccncc2)s1	-2.7	-10.2%	8.9%	-11.4	?	25.1µM*	12.9
CC(NC(=O)Nc1ccc([N+](=O)[O-])cc1)C(c1ccccc1)N1CCOCC1 (stereo not given)	-22.6	20.2%[15.4 µM]	?	-11.2	3.3%	.	2.0
CC1=Nc2ccc3ccccc3c2C1(C)C	-1.1	3.6%	15.9%	-5.1	-6.2%	.	?
